Assay outcomes (PubChem)
2A firefly: Primary qHTS Assay for Foot and Mouth Disease Virus Antivirals against NCGC Sytravon and CBC Compound Libraries: Firefly Luciferase Signal | Potency, µM (highest dose often 57.5 µM), without a hit: at the top dose signal change, negative = less light | HEK cells with a luciferase reporter of 2A StopGo recoding | hit rate 0.23% among 120,000; active = well fitted falling curve with a large enough effect; inconclusive = small, poorly fitted or top-dose-only effect; inactive = no such curve, though single readings can be large or run the other way; note: nearly all actives have a fitted effect of over 60% in size; overnight with compound
StopGo RLuc: Primary qHTS Assay for Foot and Mouth Disease Virus Antivirals against NCGC Sytravon and CBC Compound Libraries: Renilla Luciferase Signal; HEK cells with a luciferase reporter of 2A StopGo recoding; Potency, µM (top dose mostly 57.5 µM), inactives show at the top dose signal change, negative = less light; hit rate 0.32% among 120,000; AID 1745857, 2022; active means well fitted falling curve with a large enough effect; inconclusive means small, poorly fitted or top-dose-only effect; inactive means no such curve, though single readings can be large or run the other way; note: nearly all actives have a fitted effect of over 55% in size; overnight with compound
* hit, by the source's call; [ ] = dose if it differs, or a comment. % is set by controls: 0 for no effect and ±100 for the full control effect; potency is the fitted concentration of half-maximal effect. Some of the compounds tested; the hit share may differ from the screen's.

`O=C(O)CNS(=O)(=O)c1c(F)cc(F)cc1Br` gave 2A firefly 5% and StopGo RLuc 11%.
For O=C(c1cnccn1)N(Cc1cccs1)C1CC1 the results were 2A firefly 8% and StopGo RLuc -1%.
CCCC(=O)c1cc(O)c(O)cc1O was read as 2A firefly -8%[22.9 µM] and StopGo RLuc -12%[114 µM].
For CCCSCCCNC(=O)C1CCCN(C(=O)c2cnn(-c3ccccc3)c2-n2cccc2)C1 (centres undefined) the results were 2A firefly -13% and StopGo RLuc -9%.
`Cc1cc(C)c2cc(C(=O)OCC(=O)N3CCCCC3C)[nH]c2c1` (centres undefined) gave 2A firefly 30% and StopGo RLuc 2%.
Screening CC(=O)NC(Sc1ccc(Cl)cc1)C(=O)c1ccccc1 (centres undefined) returned 2A firefly -8% and StopGo RLuc -16%.
CN(C(=O)CSc1nc2ccccc2[nH]1)c1ccc(F)cc1 was read as 2A firefly 27% and StopGo RLuc 4%.
For CCC(C)c1ccc2oc(-c3ccc(N)cc3)nc2c1 (centres undefined) the results were 2A firefly 89%[activator] and StopGo RLuc -2%.
For CNC(=O)NC(=O)C(C)Sc1ncnc2ccccc12 (centres undefined) the results were 2A firefly -13% and StopGo RLuc -27%.
For CCCOc1ccc(Cn2c(=O)sc3ccccc32)cc1 the results were 2A firefly -6% and StopGo RLuc 14%.
For Cc1ccc(-c2nnc(C(C)Sc3nc4ccccc4c(=O)n3CCCO)o2)cc1 (centres undefined) the results were 2A firefly 142%[activator] and StopGo RLuc 10%.
`Cc1c(NC(=O)COC(=O)C2(c3ccc(Cl)cc3)CCCC2)cccc1[N+](=O)[O-]` gave 2A firefly inconclusive and StopGo RLuc inconclusive.
Screening O=c1c2ccccc2nc(/C=C/c2ccccc2O)n1-c1ccc(Br)cc1 returned 2A firefly 11% and StopGo RLuc -14%.
CNC(=O)C1CCC(Cn2c(=O)c3sccc3n(CC(=O)Nc3cc(F)ccc3F)c2=O)CC1 (centres undefined) was read as 2A firefly -2% and StopGo RLuc 3%.
For COc1ccccc1NC(=O)c1ccc(-n2cccn2)cc1 the results were 2A firefly 40%[activator] and StopGo RLuc -11%.
COC(=O)C1=C(C)NC(=O)CC1C(=O)Nc1ccc(F)c(Cl)c1 (centres undefined) was read as 2A firefly -2% and StopGo RLuc -11%.
`Cc1noc(C)c1S(=O)(=O)N1CCCC1c1cc(C(C)C)no1` (centres undefined) gave 2A firefly 15% and StopGo RLuc 12%.
For CN1C(C(=O)Nc2ccc(F)cc2F)=CC(c2ccco2)=NS1(=O)=O the results were 2A firefly 50%[activator] and StopGo RLuc 32%[activator].
Screening Cc1ccc(C(C)NC(=O)NCCNc2ncccc2C#N)cc1 (centres undefined) returned 2A firefly 2% and StopGo RLuc 13%.
Clc1cccc(Oc2ncnc3c2oc2ccccc23)c1 was read as 2A firefly 126%[activator] and StopGo RLuc 1%.

Reprinted from the part before: two entries; new compounds follow.
Screening Cc1ccc(C(C)NC(=O)NCCNc2ncccc2C#N)cc1 (centres undefined) returned 2A firefly 2% and StopGo RLuc 13%.
Clc1cccc(Oc2ncnc3c2oc2ccccc23)c1 was read as 2A firefly 126%[activator] and StopGo RLuc 1%.
For CC(=O)c1cccc(NC(=O)C2CCN(c3ncnc4c3nc3n4CCCCC3)CC2)c1 the results were 2A firefly 1% and StopGo RLuc -2%.
`CCNC(=O)c1cnc2c(-c3ccccc3)c(C)nn2c1C` gave 2A firefly -1% and StopGo RLuc -5%.
`CC(C)Cc1nnc(NC(=O)Cn2ccc3ccc(F)cc32)s1` gave 2A firefly 0% and StopGo RLuc 6%.
For CCN(CC)Cc1ccccc1CNC(=O)CCn1cnc2sc(C)c(C)c2c1=O the results were 2A firefly -9% and StopGo RLuc -11%.
`CN(CCC#N)S(=O)(=O)c1ccc(Br)cc1` gave 2A firefly 2% and StopGo RLuc 5%.
For CC(C)CN[C@H]1CS(=O)(=O)C[C@@H]1S(=O)(=O)c1ccccc1 the results were 2A firefly 21% and StopGo RLuc 0%.
`COC(=O)c1ccc(Cn2nnc3c(=O)[nH]c(C4CCCN(S(=O)(=O)c5ccccc5Cl)C4)nc32)cc1` (centres undefined) gave 2A firefly -21% and StopGo RLuc -11%.
For CC(C)CNC(=O)NC(NC(=O)C1CCCCC1)(C(F)(F)F)C(F)(F)F the results were 2A firefly 2% and StopGo RLuc 0%.
`Cc1ccc(N2C(=O)C(CC(=O)Nc3ccc(F)cc3)N(Cc3ccc4c(c3)OCO4)C2=O)cc1` (centres undefined) gave 2A firefly -15% and StopGo RLuc 133%[activator].
CC(C)NC(=O)CCSc1nc(-c2ccc3c(c2)OCO3)cc(C(F)(F)F)n1 was read as 2A firefly -5% and StopGo RLuc -10%.
For O=C(OCc1cccc2cccnc12)c1ccccn1 the results were 2A firefly 23% and StopGo RLuc 11%.
`O=[N+]([O-])c1ccc(Oc2cccc3cccnc23)cc1` gave 2A firefly 0% and StopGo RLuc 5%.
For Clc1cccc(-c2noc(-c3ccc[nH]3)n2)c1 the results were 2A firefly 212%[activator] and StopGo RLuc 21%.
For CCC(CC)NC(=O)COc1ccccc1NC(C)=O the results were 2A firefly -4% and StopGo RLuc -4%.
Screening Cc1ccc(NC(=O)CCn2nc(C)c3c(C)n(-c4ccccc4)nc3c2=O)cc1Cl returned 2A firefly -1% and StopGo RLuc 6%.
`COc1ccc(-c2coc3cc(OCc4ccccc4C)ccc3c2=O)cc1` gave 2A firefly 94%[activator] and StopGo RLuc 37%.
`CN(Cc1ccccc1C(F)(F)F)C(=O)C1CCN(Cc2cccnc2)CC1` gave 2A firefly -4% and StopGo RLuc -2%.
Screening Cc1cc(C)cc(N(C)S(=O)(=O)c2nnc(NC(=O)COc3ccc(Cl)cc3)s2)c1 returned 2A firefly 0% and StopGo RLuc -19%.
For Cc1cc(C)nc(/N=C2\NC(=O)CC(C(=O)O)N2c2ccc(Oc3ccccc3)cc2)n1 (centres undefined) the results were 2A firefly 3% and StopGo RLuc 15%.
CCc1nn(CC(=O)NCc2ccc(OC)cc2OC)c(=O)c2cc3c(OC)cccc3n12 was read as 2A firefly -7% and StopGo RLuc -7%.

Retrieved by compound from the list above, 2 records:
`CN(Cc1ccccc1C(F)(F)F)C(=O)C1CCN(Cc2cccnc2)CC1` gave 2A firefly -4% and StopGo RLuc -2%.
CN(C(=O)CSc1nc2ccccc2[nH]1)c1ccc(F)cc1 was read as 2A firefly 27% and StopGo RLuc 4%.

The main list resumes, repeating the 6 entries before the break.
Screening Cc1ccc(NC(=O)CCn2nc(C)c3c(C)n(-c4ccccc4)nc3c2=O)cc1Cl returned 2A firefly -1% and StopGo RLuc 6%.
`COc1ccc(-c2coc3cc(OCc4ccccc4C)ccc3c2=O)cc1` gave 2A firefly 94%[activator] and StopGo RLuc 37%.
`CN(Cc1ccccc1C(F)(F)F)C(=O)C1CCN(Cc2cccnc2)CC1` gave 2A firefly -4% and StopGo RLuc -2%.
Screening Cc1cc(C)cc(N(C)S(=O)(=O)c2nnc(NC(=O)COc3ccc(Cl)cc3)s2)c1 returned 2A firefly 0% and StopGo RLuc -19%.
For Cc1cc(C)nc(/N=C2\NC(=O)CC(C(=O)O)N2c2ccc(Oc3ccccc3)cc2)n1 (centres undefined) the results were 2A firefly 3% and StopGo RLuc 15%.
CCc1nn(CC(=O)NCc2ccc(OC)cc2OC)c(=O)c2cc3c(OC)cccc3n12 was read as 2A firefly -7% and StopGo RLuc -7%.
Screening CCNC(=O)C(C)Sc1nc(C(F)(F)F)nc2ccccc12 (centres undefined) returned 2A firefly -10% and StopGo RLuc -13%.
Screening Cc1ccc(N2C(=O)N(Cc3cc(=O)n4ccccc4n3)c3ccccc3S2(=O)=O)cc1Cl returned 2A firefly -7% and StopGo RLuc -12%.
For Cc1cccc(NC(=O)CSc2nc(C)cc(C)c2C(=O)Nc2ccc(Cl)cc2)c1 the results were 2A firefly 0% and StopGo RLuc 44%[activator].
`COc1ccc(CNC(=O)CN2C(=O)N(c3cccc(OC)c3)S(=O)(=O)c3ccccc32)cc1` gave 2A firefly 7% and StopGo RLuc 2%.
Screening COC(=O)c1cc(NCc2ccccc2F)ccc1N1CCOCC1 returned 2A firefly 39%[activator] and StopGo RLuc 42%[activator].
For CCCc1cc(=O)[nH]c(Nc2nc(C)c3ccccc3n2)n1 the results were 2A firefly 0% and StopGo RLuc 20%.
`COc1ccc(-c2cn3c(n2)sc2cc(C(=O)NCc4cccc(F)c4)ccc23)cc1` gave 2A firefly 88%[activator] and StopGo RLuc 15%.
O=C(CSc1nnc(NC2CC2)s1)Nc1ccc(Cl)cc1 was read as 2A firefly 15% and StopGo RLuc -6%.
`O=C(NC1CC2CC1C1CCCC21)c1ccc(Cl)nc1` (centres undefined) gave 2A firefly 105%[activator] and StopGo RLuc 35%[activator].
Screening c1ccc(-n2nnnc2CNc2cccc3c2CCCC3)cc1 returned 2A firefly 7% and StopGo RLuc 31%[activator].
Screening Cc1ccc(C)c(N2CCN(C(=O)C(C)n3c(C)c4cnn(-c5ccccc5)c(=O)c4c3C)CC2)c1 (centres undefined) returned 2A firefly -9% and StopGo RLuc -10%.
For CN(Cc1ccc(C(F)(F)F)cc1)C(=O)C1CCCCC1 the results were 2A firefly 3% and StopGo RLuc 5%.
For CCN(CC)CCNC(=O)Cn1cnc2sc(C)c(S(=O)(=O)N3CCN(c4ccccc4OC)CC3)c2c1=O the results were 2A firefly -16% and StopGo RLuc -13%.
Screening CC(C)CN1CCC(NC(=O)Cc2cc(Cl)c3c(c2)OCCO3)CC1 returned 2A firefly 9% and StopGo RLuc -8%.
Screening CC(CN1CCN(C)CC1)OC(=O)COc1ccc(F)cc1 (centres undefined) returned 2A firefly 0% and StopGo RLuc 13%.
COc1ccc(CN2CCC(C)CC2)cc1 was read as 2A firefly 29% and StopGo RLuc 27%.
For Cc1ccc(Cl)c(OCn2ccc(C(=O)N3CCN(Cc4ccccc4F)CC3)n2)c1 the results were 2A firefly -11% and StopGo RLuc -10%.
`CCOc1cc(/C=C(\C#N)C(=O)NCC2CCCO2)ccc1O` (centres undefined) gave 2A firefly -6% and StopGo RLuc 29%.
Screening COc1ccc(Nc2nc3ccccc3nc2NS(=O)(=O)c2cccs2)cc1 returned 2A firefly 12% and StopGo RLuc 41%[activator].
Cc1cc(C)c(NC(=O)CN(C)C(=O)CSc2ccc(Br)cc2)c(C)c1 was read as 2A firefly -14% and StopGo RLuc 0%.
CCOC(=O)c1cnc(SCc2nc(-c3ccc(Cl)cc3)oc2C)nc1N was read as 2A firefly 5% and StopGo RLuc 2%.
`N#Cc1c(C(F)(F)F)cc(-c2ccccc2)nc1SC/C=C/c1ccccc1` gave 2A firefly -11% and StopGo RLuc -8%.
For CCCn1c(=O)c2ccccc2n(CC(=O)N(C)c2ccccc2)c1=O the results were 2A firefly 18% and StopGo RLuc 13%.
`COc1cn(-c2ccccc2)nc1C(=O)OCC(=O)NC1CCCC1` gave 2A firefly 9% and StopGo RLuc 0%.
For O=C(Nc1noc2ccccc12)c1ccc(Br)o1 the results were 2A firefly 199%[activator] and StopGo RLuc 0%.
CCOc1ccc(Nc2nc3ccccc3nc2NS(=O)(=O)c2cccs2)cc1 was read as 2A firefly 12% and StopGo RLuc 6%.
Screening Cn1c(=O)n(CCCc2ccccc2)c(=O)c2c1nc1n2CCN1c1ccccc1 returned 2A firefly -8% and StopGo RLuc -15%.
Cc1cc2oc(=O)cc(CN(C)CCOc3ccc(F)cc3)c2cc1C was read as 2A firefly -2% and StopGo RLuc 8%.
Screening CC(C)(C)C(=O)/C=c1/[nH]c(=O)/c(=C/c2ccc(F)c(F)c2)s1 returned 2A firefly 34%[activator] and StopGo RLuc -3%.
For CCN(CC(=O)NC(C)C)S(=O)(=O)N1CCCC(C)C1 (centres undefined) the results were 2A firefly -4% and StopGo RLuc -6%.
CCOc1ccc(S(=O)(=O)NCc2nc3cccnc3n2Cc2ccccc2OC)cc1 was read as 2A firefly -6% and StopGo RLuc 90%[activator].
For CCCSP(=O)(OCC)SCCC the results were 2A firefly -16%[22.9 µM] and StopGo RLuc -10%[114 µM].
Screening O=C(OCc1coc(-c2ccccc2)n1)C1=NN(C2CCS(=O)(=O)C2)C(=O)CC1 (centres undefined) returned 2A firefly 51%[activator] and StopGo RLuc 5%.
`Cc1[nH]c2ccccc2c1C(=O)COc1cccc2ccccc12` gave 2A firefly 113%[activator] and StopGo RLuc -3%.
Screening CCCc1cc(C(=O)NNC(=S)NC)cs1 returned 2A firefly 106%[activator] and StopGo RLuc 26%.
CCc1ccccc1Nc1nn2c(=O)c3ccc(C(=O)Nc4cc(C)cc(C)c4)cc3nc2s1 was read as 2A firefly 15% and StopGo RLuc 4%.
Screening COc1ccc(NC(=O)CCc2nnc3n(CC(C)C)c(=O)c4ccccc4n23)cc1OC returned 2A firefly -13% and StopGo RLuc -9%.
`Cc1ccccc1S(=O)(=O)Cc1ccc(C(=O)NCCN(CC(C)C)CC(C)C)o1` gave 2A firefly -17% and StopGo RLuc -10%.
CCc1ccc(-n2nnc(C(=O)Nc3nccs3)c2C)cc1 was read as 2A firefly 153%[activator] and StopGo RLuc -3%.
Screening O=S(=O)(c1ccc(Cl)cc1)c1nnn2c1nc(NC1CCCC1)c1sccc12 returned 2A firefly -24% and StopGo RLuc -8%.
COc1cc(OC)c(NC(=O)c2c3c(nn2C)-c2ccccc2SC3)cc1Cl was read as 2A firefly 72%[activator] and StopGo RLuc 13%.
Screening O=S(Cc1ccc(Cl)cc1)Cc1cccc(F)c1 (centres undefined) returned 2A firefly 9% and StopGo RLuc -9%[1.06 µM].
For COc1cccc(CNC(=O)Cn2nc(-c3ccc(C)cc3)ccc2=O)c1 the results were 2A firefly -14% and StopGo RLuc -13%.
